HPGD block: blocks human HPGD enzyme activity. Potency, µM, for inactives: at the highest dose activity change, negative = inhibition, most hits filed as inhibitors. purified HPGD, NADH fluorescence kinetic, PGE2 substrate. actives 4.3% (n = 150,000). AID 894; active = well fitted inhibition curve with a large enough effect (not every such curve was filed as active); inconclusive = small, poorly fitted or top-dose-only effect, or another doubt; inactive = no such curve, though single readings can be large or run the other way;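 further: top concentration of the series not given in the record; plate controls included wells without enzyme; inactives centre near -10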
Target sequence (P15428 whole entry, looked up): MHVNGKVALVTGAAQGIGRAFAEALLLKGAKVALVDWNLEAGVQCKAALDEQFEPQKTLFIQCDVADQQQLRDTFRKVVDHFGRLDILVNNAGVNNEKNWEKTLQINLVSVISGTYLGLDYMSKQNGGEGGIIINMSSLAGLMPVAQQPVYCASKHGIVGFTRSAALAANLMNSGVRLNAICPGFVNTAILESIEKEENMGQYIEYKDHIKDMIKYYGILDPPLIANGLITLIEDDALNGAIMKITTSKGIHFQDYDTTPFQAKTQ
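NADH formation kinetics: reaction with 30 uM PGE2 and 1 mM NAD+ (final), 20 nM enzyme, Tris-HCl pH 8 with Tween 20, after 15 min compound preincubation at room temperature. Fluorescence change, last versus first of five reads.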
Numbers without * were called inactive; u = inconclusive; & = joins results of further samples. On the % scale 0 is the no-effect control and ±100 the full control effect; potency means the concentration at half of the fitted maximal effect.

nr | HPGD block | molecule
1 | -7% | COc1ccc(COCC(O)CN2CCOCC2)cc1OC (stereo not given)
2 | u | CCOC(=O)c1c(NC(=O)C(=O)N/N=C/c2ccc(OCC)cc2)sc2c1CCCCC2
3 | 28µM* | S=c1[nH]nc(-c2ccc3ccccc3n2)n1-c1ccccc1
4 | -17% | COc1ccc(C2C(C#N)=C(N)Oc3n[nH]c(C)c32)cc1CN1CCN(c2ccc(F)cc2)CC1 (stereo not given)
5 | -29% | COc1cccc(-c2nnc(N(C)C(=O)C3CCOC3)s2)c1 (stereo not given)
6 | -3% | Cc1ccc(S(=O)(=O)N2CCCC2CO)cc1 (stereo not given)
7 | -2% | CC(=O)N1CCc2cc(S(=O)(=O)Nc3cccc(C(F)(F)F)c3)ccc21
8 | -1% | C/C(CC(=O)Nc1ccccn1)=N\NC(=O)c1ccccc1
9 | -16% | CCCCCCn1c(N2CCN(c3ccccc3)CC2)nc2c1c(=O)n(C)c(=O)n2C
10 | -11% | Cn1nnnc1SCC(=O)Nc1ccc(N2CCOCC2)cc1

nr | HPGD block | molecule
11 | -1% | O=C(Nc1nc2ccccc2n1CCN1CCCCC1)C1CCCCC1
12 | -7% | COc1ccc(N2CC(C(=O)Nc3nccs3)CC2=O)cc1 (stereo not given)
13 | -16% | O=C(Cn1ncc2c(=O)oc3ccccc3c21)N1CCC(N2CCCCC2)CC1
14 | -4% | CCc1ccc2nc(NC3=NCN(CCN4CCOCC4)CN3)nc(C)c2c1
15 | -9% | Cc1ccc(SCCNC(=S)Nc2ccc(C)c(C)c2)cc1
16 | 0% | CCCCN1C(=O)C2NN=C(C(=O)OC)C2C1=O (stereo not given)
17 | u | COc1ccc(C(NC(C)=O)c2c(O)ccc3ccccc23)cc1OC (stereo not given)
18 | -16% | CCOC(=O)c1ccc(NC(=O)Cn2nnc3ccccc32)cc1
19 | -4% | CCCCCOc1ccc(C(=O)NC(C(=O)O)C(C)C)cc1 (stereo not given)
20 | -28% | COc1ccc(-c2[nH]ncc2Oc2ccccc2OC)c(O)c1

nr | HPGD block | molecule
21 | u | COc1ccc(-n2cnc3cc(NCc4ccco4)ccc32)cc1
22 | -2% | COc1ccccc1CN1CC2(CCN(C(=O)c3cnccn3)CC2)C1
23 | u | O=C(c1csnn1)N1CCC2(CC1)CN(c1cccc(-c3ccccc3)c1)C2
24 | -16% | CC1(C)CC(=O)C2=C(C1)OC(c1cccs1)C(C#N)=C2N (stereo not given)
25 | -7% | N#CCSc1nnc(-c2ccccc2O)n1CCc1ccccc1
26 | u | Cc1nc(NCc2ccccc2)c2nc(-c3ccccc3)n(CCN3CCOCC3)c2n1
27 | -25% | c1ccc(CN2CCN(c3nc(NCc4ccco4)c4ccccc4n3)CC2)cc1
28 | -18% | S=C(S)NCCN1CCNCC1
29 | -5% | CCN(CCO)Cc1csc2ccccc12
30 | -11% | Cc1cccc(C(=O)NCCc2csc(C)n2)c1

nr | HPGD block | molecule
31 | -12% | CCC(=O)NC(c1cccs1)c1cc([N+](=O)[O-])c2cccnc2c1O (stereo not given)
32 | u | CCCn1c(C)cc(/C=C(\C#N)C(=O)OCC(=O)NC(=O)NCC)c1C
33 | u | Clc1ccc(Cl)c2sc(N3CCCC3)nc12
34 | -7% | COc1cccc(N2CCN(C(=O)c3cccnc3)CC2)c1
35 | -6% | c1ccc2c(c1)C(=NC1CCCCC1)NC2=NC1CCCCC1
36 | -16% | Cc1ccc2cc(CN(CC3CCCO3)C(=O)NC3CCCCC3)c(=O)[nH]c2c1C (stereo not given)
37 | 0% | CC1CCc2cc(F)ccc2N1C(=O)CN1C(=O)c2ccccc2C1=O (stereo not given)
38 | -11% | O=C(O)c1ccccc1C(=O)O
39 | -12% | Cc1cc(C)c2c(=O)n(-c3ccccc3)[nH]c2n1
40 | -3% | Cc1ccc(OCC(=O)N/N=C\c2c(C)n(C)c3ccccc23)c([N+](=O)[O-])c1

nr | HPGD block | molecule
41 | -11% | CC(=O)OC1CCC2C3CCc4cc(O)ccc4C3CCC12C (stereo not given)
42 | -3% | CC(C)(C)c1cc(CNC2CS(=O)(=O)C[C@@H]2O)cc(C(C)(C)C)c1O (stereo not given in full)
43 | -3% | COC(=O)c1ccc2c(c1)NC(=O)C(N1CCCCC1)S2 (stereo not given)
44 | u | CCOC(=O)c1cc2ccc(OC)cc2oc1=O
45 | u | Cc1ccc(C23CC4CC(CC(NC(=O)NC(C)(C)CO)(C4)C2)C3)cc1
46 | -12% | COC(=O)/C(=C\Nc1ccc(Cl)cc1Cl)NC(=O)c1ccccc1
47 | -12% | CCCC(c1nnnn1C1CCCCC1)N1CCN(c2ncccn2)CC1 (stereo not given)
48 | -18% | O=C(Nc1cc(C(F)(F)F)ccc1N1CCOCC1)c1cccs1
49 | 10µM* | O=C(CSc1ccc(Cl)cc1)NC1CCCC1
50 | -24% | CCn1c(SCC(=O)O)nnc1-c1ccc2[nH]c(C)c(C)c2c1

nr | HPGD block | molecule
51 | -9% | Cc1ccc2c(c1)N(CC(=O)N1CCN(c3nc4ccccc4s3)CC1)C(=O)C(C)O2 (stereo not given)
52 | u | COc1cccc2cc3c(=O)oc4ccccc4c3nc12
53 | u | COc1ccc(C2CC(=O)c3sc(NC(C)=O)nc3C2)cc1 (stereo not given)
54 | -7% | CCOc1ccc(NC(=O)CN2CCN(CC(=O)Nc3ccc4c(c3)OCO4)CC2)cc1
55 | -5% | CCc1ccc(CNCc2ccc(F)cc2)cc1
56 | -20% | CCc1nc2cc(Cl)c(Cl)cc2[nH]1
57 | -5% | CC(C)NC(=O)c1ccc2c(=O)n(C3CCCC3)c(=S)[nH]c2c1
58 | -9% | CC(=O)c1cc2c(cc1NC(=O)CN1CCCCCC1)OCO2
59 | -20% | CCCOC(=O)Nc1ccc(C(N)=O)cc1
60 | -13% | O=C(c1ccc(Cl)cc1)[C@@H]1[C@@H]2C(=O)N(c3cccc4ccccc34)C(=O)[C@@H]2C2c3ccccc3C=NN21 (stereo not given in full)

nr | HPGD block | molecule
61 | -8% | CCOc1ccccc1N1CC(C(=O)N2CCc3ccccc3C2)CC1=O (stereo not given)
62 | -17% | O=C(C1CCCN(S(=O)(=O)c2ccccc2)C1)N1CCCc2ccccc21 (stereo not given)
63 | -7% | O=C1c2[nH]nc(-c3ccccc3O)c2C(c2ccccc2)N1Cc1ccco1 (stereo not given)
64 | -22% | CC(C)(C)c1nnc2sc(SCC(=O)N3CCCc4ccccc43)nn2c1=O
65 | u | COc1ccc(CC(=O)Nc2ccc(C(=O)NCC(C)C)cc2)cc1
66 | u | COc1ccc2c(c1)c(=O)cc(-c1ccccc1)n2C
67 | -10% | Cc1nn(C)c(C(=O)N2CCN(C(=O)c3ccco3)CC2)c1[N+](=O)[O-]
68 | -27% | COc1ccc(-c2[nH]c(-c3ccccc3)nc2SCC(=O)NCc2ccco2)cc1OC
69 | u | CCn1c(SCC(=O)Nc2ccc(-c3nc4ccc(C)cc4s3)cc2)nnc1-c1ccccc1
70 | 4% | COC(=O)C1=C(C)N(CC2CC2)C(=O)N[C@H]1c1ccccc1

Filtered by structure, the entries above with a furan ring, fused or not.
nr | HPGD block | molecule
21 | u | COc1ccc(-n2cnc3cc(NCc4ccco4)ccc32)cc1
27 | -25% | c1ccc(CN2CCN(c3nc(NCc4ccco4)c4ccccc4n3)CC2)cc1
63 | -7% | O=C1c2[nH]nc(-c3ccccc3O)c2C(c2ccccc2)N1Cc1ccco1 (stereo not given)
67 | -10% | Cc1nn(C)c(C(=O)N2CCN(C(=O)c3ccco3)CC2)c1[N+](=O)[O-]
68 | -27% | COc1ccc(-c2[nH]c(-c3ccccc3)nc2SCC(=O)NCc2ccco2)cc1OC

(continued)
nr | HPGD block | molecule
71 | -6% | Cc1ccc(CCN2CC(C(=O)NCCCN3CCOCC3)CC2=O)cc1 (stereo not given)
72 | -2% | COCC(=O)N(C)c1nnc(-c2ccc([N+](=O)[O-])cc2)s1
73 | 1% | NS(=O)(=O)c1ccc(CCNC(=O)CN2CCN(c3ccc(F)cc3)CC2)cc1
74 | -11% | Cc1c(C(O)CN2CCN(Cc3ccc4c(c3)OCO4)CC2)c2ccccc2n1C (stereo not given)
75 | 14µM* | CCN(C(=O)CCc1nc(-c2ccc(OC)cc2)no1)c1cc(OC)ccc1OC
76 | -11% | COc1cc(-c2nc(S(=O)(=O)c3ccc(Cl)cc3)c(N3CCOCC3)o2)cc(OC)c1OC
77 | -7% | CN(C)CCCNCCNC(=O)/C=N\O
78 | -4% | Cc1cccc(N(C(=O)c2nsc(Cl)c2Cl)C(C(=O)NC2CCCC2)c2ccc(O)cc2)c1 (stereo not given)
79 | -8% | COc1ccc2nc(NC(=O)C3CCN(S(=O)(=O)c4cnc[nH]4)CC3)sc2c1
80 | -25% | CCCC(C(=O)NC1CCCC1)N(CCCN1CCOCC1)C(=O)c1snc(C(N)=O)c1N (stereo not given)

nr | HPGD block | molecule
81 | -24% | CC(C)OC(=O)CSc1nc(N)c(C#N)c(-c2cccs2)c1C#N
82 | -8% | COc1ccccc1N1C(=O)CC(Sc2ncccc2C(=O)O)C1=O (stereo not given)
83 | -11% | CCC(C)(C)NC(=O)C(c1ccc(OC)cc1)N(Cc1ccco1)C(=O)CCC(=O)Nc1cc(C)on1 (stereo not given)
84 | -6% | O=C(c1ccc(Cl)c(Cl)c1)N1CCC(=O)N(C(COCc2ccccc2)Cc2ccccc2)CC1 (stereo not given)
85 | -9% | O=C(NNS(=O)(=O)c1cccc(Cl)c1Cl)c1cccc(S(=O)(=O)N2CCOCC2)c1
86 | -8% | CCn1ncc(C2=NOC(C(=O)Nc3c(C)n(C)n(-c4ccccc4)c3=O)C2)c1C (stereo not given)
87 | -10% | CCCC(=O)Nc1nc(-c2ccc3c(c2)OCCO3)cs1
88 | -16% | Cc1ccc(-c2nnn(CC(=O)N(CC3CCCO3)C(C(=O)NCC3CCCO3)c3ccc(F)cc3)n2)o1 (stereo not given)
89 | -5% | CCOC(=O)N1CCN(C(=O)C2CCN(C(=O)c3cc4sccc4n3CC)CC2)CC1
90 | -15% | O=[N+]([O-])c1cc2oc3c(c2c(C=NCc2ccccc2)c1O)CCCC3

nr | HPGD block | molecule
91 | -1% | CC(C)(C)N=C1NC(=NC(C)(C)C)c2ccccc21
92 | -4% | Cn1c(CCNC(=O)c2ccc(Cl)c(Cl)c2)nnc1SCc1ccc(Cl)c(Cl)c1
93 | 3%&-2% | CC1CCC(C(C)C)C(OC(=O)Cn2c(-c3ccccc3)[n+](C)c3ccccc32)C1 (stereo not given)
94 | 1% | COC(=O)C1CC(c2c(OC)cc(OC)cc2OC)=NO1 (stereo not given)
95 | 20µM* | Cc1ccc2c(CSc3nnc(N)s3)cc(=O)oc2c1
96 | 2% | CC1(C)C(=O)Nc2ccccc2N1C(=O)COC(=O)c1cc([N+](=O)[O-])ccc1N
97 | -6% | COC[C@@H](O)[C@@H](OC)[C@H](OC)[C@H](Cc1c(OC)cc(OC)cc1OC)OC
98 | -9% | O=C(CC1(O)C(=O)Nc2ccccc21)c1ccc2c(c1)OCO2 (stereo not given)
99 | -13% | CCC(=O)N1CCc2cc(S(=O)(=O)NC(C(=O)NCc3ccc(C)cc3)C(C)C)ccc21 (stereo not given)
100 | -8% | O=C(NCc1ccc(Cl)cc1)C1CCCN(S(=O)(=O)c2cnc[nH]2)C1 (stereo not given)

nr | HPGD block | molecule
101 | -11% | CN(C)CCNC(=O)c1ccc(Cl)s1
102 | -23% | COc1ccc(N2Cc3cccc(C(=O)O)c3C2=O)cc1
103 | -5% | OCC1CCCN(C(=S)NCCc2ccccc2)C1 (stereo not given)
104 | 7.9µM* | COC(=O)/C=c1/sc2nc3ccccc3n2c1=O
105 | -5% | O=S(=O)(NCc1ccccc1)c1ccc(Cl)c(S(=O)(=O)NCc2ccccc2)c1
106 | -4% | CCCCCCCCCCCCOCC1CO1 (stereo not given)
107 | -24% | Cc1cc(=O)oc2cc(OCC(=O)N/N=C/c3ccccc3[N+](=O)[O-])ccc12
108 | 2µM* | CCOC(=O)c1c(N2C(=O)C=CC2=O)sc(C)c1C
109 | u | O=C(Nc1nnc(-c2ccc(Cl)cc2)o1)c1nc2ccccc2s1
110 | -21% | CC(/C=C/C=C(C)/C=C/C(=O)O)=C\C=C\C=C(C)\C=C\C=C(C)\C=C\C(=O)O

Shown with tabs: entries from further up
entry	Compound	HPGD block
109	O=C(Nc1nnc(-c2ccc(Cl)cc2)o1)c1nc2ccccc2s1	u
103	OCC1CCCN(C(=S)NCCc2ccccc2)C1 (stereo not given)	-5%
107	Cc1cc(=O)oc2cc(OCC(=O)N/N=C/c3ccccc3[N+](=O)[O-])ccc12	-24%
106	CCCCCCCCCCCCOCC1CO1 (stereo not given)	-4%
102	COc1ccc(N2Cc3cccc(C(=O)O)c3C2=O)cc1	-23%
108	CCOC(=O)c1c(N2C(=O)C=CC2=O)sc(C)c1C	2µM*
104	COC(=O)/C=c1/sc2nc3ccccc3n2c1=O	7.9µM*

Molecules from the list above with a CF3 group, in the order listed:
nr | HPGD block | molecule
7 | -2% | CC(=O)N1CCc2cc(S(=O)(=O)Nc3cccc(C(F)(F)F)c3)ccc21
48 | -18% | O=C(Nc1cc(C(F)(F)F)ccc1N1CCOCC1)c1cccs1

The list goes on.
nr | HPGD block | molecule
111 | 0% | CCC(Sc1nc2ccccc2s1)C(=O)Nc1nnc(C)s1 (stereo not given)
112 | u | O=C(c1cc2nc(-c3ccco3)cc(C(F)(F)F)n2n1)N1CCc2ccccc2C1
113 | u | Cc1ccc(OCc2nc(-c3ccccc3)no2)c(C)c1
114 | u | COc1ccc(Nc2oc(COc3ccccc3F)nc2C#N)cc1
115 | u | Oc1ccc(-c2nc(=S)[nH][nH]2)cc1
116 | u | COc1ccc(S(=O)(=O)Nc2ccccc2C(=O)O)cc1
117 | u | Cc1cccc(S(=O)(=O)Nc2ccc(-c3cn4ccccc4n3)cc2)c1
118 | -5% | O=C(COc1ccc2ccccc2c1)NNC(=O)c1cnccn1

This is a subset, so the mix of outcomes need not match the whole.
